# High-throughput results: PubChem, National Center for Advancing Translational Sciences (NCATS)
# StopGo RLuc: lowers the Renilla signal of an FMDV 2A StopGo reporter. 0.32% of 120,000 active. Potency, µM (doses to about 57.5 µM), for inactives: top-dose signal change, negative = less light. HEK cells with a luciferase reporter of 2A StopGo recoding. AID 1745857; active means well fitted falling curve with a large enough effect; inconclusive means small, poorly fitted or top-dose-only effect; inactive means no such curve, though single readings can be large or run the other way; further: nearly all actives have a fitted effect of over 55% in size; overnight with compound
# 2A firefly: lowers the firefly signal of an FMDV 2A StopGo reporter; 0.23% of 120,000 active; Potency, µM (top dose mostly 57.5 µM), for the others: top-dose signal change, negative = less light; AID 1745856; HEK cells with a luciferase reporter of 2A StopGo recoding; active = well fitted falling curve with a large enough effect; inconclusive = small, poorly fitted or top-dose-only effect; inactive = no such curve, though single readings can be large or run the other way; further: nearly all actives have a fitted effect of over 60% in size; overnight with compound
# Starred values were filed as active, the others as inactive; u = inconclusive; & = joins results of further samples; [ ] = another dose, or the depositor's remark. On the % scale 0 is the no-effect control and ±100 the full control effect; potency means the concentration at half of the fitted maximal effect.
# Below each compound – StopGo RLuc, 2A firefly
- COc1cccc(C2NC(=O)NC(C)=C2C(=O)c2ccc(Cl)cc2)c1 (stereo not drawn)
  0%, 10%
- CC[n+]1c(-c2ccccc2)c2cc(N)ccc2c2ccc(N)cc21
  u, u
- COc1cc(-c2cc(OC)c3c(C)oc(C)c3c(=O)c2)ccc1OC(=O)c1ccc(C)cc1
  -19%, -17%
- COc1ccc(-c2nc(C)c(CCNC(=O)C(=O)Nc3ccccc3OC)s2)cc1
  0%, 28%
- CC(=O)c1ccc(-c2ccc(C3CC(=O)Nc4c3c(C)nn4-c3ccc(=O)[nH]n3)o2)cc1 (stereo not drawn)
  18%, 31%
- Cc1ccc(C(=O)N2CCc3cc(CNC(=O)c4ccc(Br)cc4)ccc32)cc1
  -13%, -9%
- Cc1ccc2oc(C(=O)Nc3cccc(C(F)(F)F)c3)cc(=O)c2c1
  1%, 14%
- CCC(CC)NC(=O)CSc1nc2cc(S(=O)(=O)N(C)C)ccc2o1
  -5%, -9%
- COc1ccc(-c2cc(C(=O)N3CCCC3)c3ccccc3n2)cc1
  149%[activator], 159%[activator]
- CCOCCCNC(=O)CN1C(=O)CCn2nc(-c3cccn3C)cc21
  -16%, -16%
- CCCn1c2ccccc2c2nnc(SCC(=O)Nc3cccc(C(C)=O)c3)nc21
  -9%, -7%
- CC(=O)c1cccc(NC(=O)c2cccn(Cc3cccc(C)c3)c2=O)c1
  27%, -3%
- CC(NC(=O)C1CCN(c2ccc(C#N)cn2)CC1)c1ccc(F)cc1 (stereo not drawn)
  -14%, -6%
- Cc1cccc(CNC(=O)CCCN2C(=O)COc3ccc(C)cc32)c1
  u, -14%
- O=C(NCc1ccco1)c1ccc2c(c1)N(Cc1ccccc1F)C(=O)c1ccccc1S2=O (stereo not drawn)
  84%[activator], 10%
- Cn1c(=O)c2c(nc(CN(Cc3ccccc3)Cc3ccccc3)n2Cc2ccccc2)n(C)c1=O
  2%, -7%
- CCCn1nc(C(=O)NC(c2ccc3c(c2)OCCO3)C(C)C)c2ccccc2c1=O (stereo not drawn)
  1%, -6%
- Cc1ccc(C(=O)N/C(=C\c2ccc(-c3ccc(Br)cc3)o2)C(=O)NC(C)(C)C)cc1
  -9%, 5%
- CCCCN(C)C(=O)CSc1nc2ccsc2c(=O)n1-c1cc(F)cc(F)c1
  20%, 27%
- Cc1ccn2c(Nc3ccc4c(c3)OCCO4)c(-c3ccccc3O)nc2c1
  10%, 53%[activator]
- CCC(C)NC(=O)CSc1c2c(nc3cc(Cl)ccc13)CCCC2 (stereo not drawn)
  -7%, -12%
- COc1ccc(C(=O)Nc2ccc(N3CCOCC3)cc2)cc1S(=O)(=O)NC1CC1
  229%[activator], 36%[activator]
- O=C(Nc1ccc(OC(F)(F)F)cc1)C(Cc1ccccc1)C(=O)Nc1ccc(OC(F)(F)F)cc1
  -16%, -18%
- CCCNc1c(NC(=O)c2cc(OC)cc(OC)c2)c(=O)oc2ccccc12
  30%, 0%
- CCOC(=O)C1=C(CNCc2cccc(C)c2)NC(=O)NC1c1cc(C)ccc1C (stereo not drawn)
  -7%, -10%
- Cc1ccc(-c2nnn(Cc3coc(-c4ccccc4)n3)n2)cc1
  2%, -5%
- CC(C)(Oc1ccc(Cl)cc1)c1nn2c(COc3ccc(F)cc3)nnc2s1
  u, u
- C#CCN1CCC(C(=O)NC(c2ccccc2)C(F)(F)F)CC1 (stereo not drawn)
  -1%, 12%
- O=C(COc1ccc2c(=O)c(-c3ccccc3)coc2c1)N1CCN(CCO)CC1
  -7%, 47%[activator]
- COc1ccc(NC(=O)c2oc3ccc4c(c3c2C)C(=O)CC(C)(C)O4)cc1OC
  28%, 328%[activator]
- O=C(Nc1cc(-c2nc3ccccc3s2)ccc1Cl)c1cc2ccccc2o1
  7%, 125%[activator]
- CC(C)NCC(O)c1cc(O)cc(O)c1 (stereo not drawn)
  4%, 12%[11.5 µM]
- O=C(CCNS(=O)(=O)c1ccc2[nH]c(=O)ccc2c1)N1CCN(c2ccc(Cl)cc2)CC1
  u, u
- N#Cc1cccc(S(=O)(=O)NCC(=O)O)c1
  0%, 22%
- Cc1ccc(-c2cc(C(=O)OCC(=O)N3CCCC3=O)c3ccccc3n2)o1
  -7%, 46%[activator]
- CCc1nnc2c(Nc3cccc(C(C)=O)c3)nc3ccccc3n12
  -9%, -13%
- CCOc1ccc(NC(=O)c2nc(S(=O)(=O)Cc3ccccc3F)ncc2Cl)cc1
  u, u
- N#CCCn1c(SCC(=O)Nc2ccc3c(c2)CCC3)nc2ccccc21
  -6%, -6%
- CCc1c(C)nc2ncnn2c1Sc1ccc(NC(=O)c2ccc(OC)c(OC)c2)cc1
  -24%, 55%[activator]
- Cc1ccc2onc(CC(=O)N3CCN(c4ccc(F)cc4)CC3)c2c1
  2%, -18%
- O=C1CC[C@@]2(O)[C@H]3Cc4ccc(O)c5c4[C@@]2(CCN3CC2CC2)[C@H]1O5
  -6%, -4%
- CCCn1nnnc1CN1CCCC1c1ccc2c(c1)OCCO2 (stereo not drawn)
  69%[activator], -7%
- CCCn1c(=O)[nH]c(=O)c2c1nc(-c1ccc(C#N)cc1)n2CCN1CCOCC1
  -14%, -1%
- CCCCn1c(=O)[nH]c(=O)c2c1nc(CN1CCOC(C)C1)n2C (stereo not drawn)
  -3%, 9%
- Cc1ccccc1-c1nnn(CC(=O)N2CCC(c3nc4ccccc4s3)CC2)n1
  u, u
- Cc1cc(NC(=O)C(C)(C)C)cc(-c2nc3cc(Cl)ccc3o2)c1O
  0%, -5%
- O=C(Nc1cccc(C(=O)N2CCCCC2)c1)c1nsc2ccccc12
  33%[activator], 127%[activator]
- Cc1cc(NC(=O)COc2ccc3c(C)c(C)c(=O)oc3c2)no1
  -16%, -7%
- COC(=O)c1ccc(NC(=O)c2nn(C)c3c2CS(=O)(=O)c2ccccc2-3)cc1
  -9%, -10%
- COc1ccc(Cl)cc1NC(=O)Cn1cc(S(=O)(=O)Cc2cccc(Cl)c2)c2ccccc21
  163%[activator], 3%
- CC(=O)c1ccc(NC(=O)c2ccc3ccn(C)c3c2)cc1
  1%, 115%[activator]
- COC(=O)Cn1c(=O)c2c(nc3n2CCN3c2ccc(F)cc2)n(C)c1=O
  -1%, 9%
- Cc1ccc(CNC(=O)CSc2ncc(S(=O)(=O)c3ccc(Br)cc3)c(=O)[nH]2)cc1
  -8%, -13%
- Cc1ccc(NC(=O)/C(C#N)=C/c2cc(C(C)(C)C)c(O)c(C(C)(C)C)c2)cc1C
  u, u
- COc1ccc(Cl)cc1NS(=O)(=O)c1c(C)nc2scc(C)n2c1=O
  40%[activator], -6%
- CC(=O)c1ccc(S(=O)(=O)N2CCN(C(=O)COc3cccc(-n4cnnn4)c3)CC2)cc1
  -13%, -5%
- O=C(Cn1c(=O)c2cccn2c2ccc(F)cc21)Nc1cccc(F)c1
  -3%, 0%
- CCOC(=O)c1ccc(NC(=O)Cn2c(=O)cc(C)c3c(C)nn(-c4ccc(CC)cc4)c32)cc1
  -15%, 0%
- CCc1ccc(NS(=O)(=O)c2c(-c3ccccc3)csc2C(=O)OC)cc1
  317%[activator], 23%
- CC(C)NC(=O)C1CCC(Cn2c(=O)c3sccc3n(CC(=O)NCc3ccccc3)c2=O)CC1 (stereo not drawn)
  -7%, -9%

# Additional entries.
# Below each compound – StopGo RLuc, 2A firefly
- CCOCCn1c(CN2CCN(C)CC2)nc2c1c(=O)n(C)c(=O)n2C
  -8%, -6%
- Cc1ccc(NC(=O)Cc2c[nH]c3ccccc23)cc1F
  167%[activator], 137%[activator]
- O=C(CSc1ccc(F)cc1)OCc1nc2ccsc2c(=O)[nH]1
  0%, 5%
- CC(=O)SCC(=O)C(C#N)c1ccccn1 (stereo not drawn)
  2%, 8%
- CCOC(=O)c1cnc(SCC(=O)Nc2ccc(C)cc2Cl)nc1N
  -6%, -1%
- CCn1c(=O)c2cc(C(=O)Nc3cc(OC)c(OC)c(OC)c3)sc2c2ccccc21
  89%[activator], 0%
- CC(=O)c1ccc(N2CCN(C(C(=O)O)c3c[nH]c4cc(NC(=O)C(C)C)ccc34)CC2)cc1 (stereo not drawn)
  -20%, -14%
- CCOCCCn1c(SCC(=O)OCC)nc2c(sc3ccccc32)c1=O
  -9%, 3%
- Cc1ccc2nc(Cl)c3cc(C(=O)N4CCCCC4)sc3c2c1
  -11%, 9%
- Cc1ccn2c(Nc3ccc4c(c3)OCO4)c(-c3ccc(C)o3)nc2c1
  6%, 50%[activator]
- Cc1ccc(NC(=O)c2cnc(N3CCCCC3)c3ccccc23)cc1Cl
  27%&8%, 66%&-12%[activator]
- COc1cc2cc(C(=O)NCC(=O)Nc3nccs3)n(C)c2c(OC)c1OC
  13%, 29%
- Cc1ccc(C(=O)NCC(c2ccc(Cl)cc2)N2CCCCC2)cc1 (stereo not drawn)
  -3%, -21%
- CSc1ccc(OC(=O)c2ccccc2F)cc1
  8%, 8%
- CCCCCCOc1ccc(/C=C/C(=O)c2ccc(OC)c(CSCC(=O)O)c2)cc1
  u, 18%
- Cc1ccc(NC(=O)CCc2nc3cc(Cl)ccc3n(CC(C)C)c2=O)cc1
  -1%, -9%
- CCN(C(=O)CSc1cc(C)c2cccc(C)c2n1)C1CCS(=O)(=O)C1 (stereo not drawn)
  -1%, 10%
- Cc1ccc(CN(Cc2ccco2)C(=O)c2cc3ccccc3oc2=O)cc1
  197%[activator], 234%[activator]
- CCOC(=O)c1ccc(NC(=O)CC2C(=O)N(c3ccc(F)cc3)C(=O)N2Cc2ccc3c(c2)OCO3)cc1 (stereo not drawn)
  34%[activator], -17%
- CNC(=O)NC(=O)C(C)OC(=O)c1csc(NCc2ccccc2)n1 (stereo not drawn)
  -3%, 24%

# Structural class: those above with an NH in an aromatic ring.
# Below each compound – StopGo RLuc, 2A firefly
- CC(=O)c1ccc(-c2ccc(C3CC(=O)Nc4c3c(C)nn4-c3ccc(=O)[nH]n3)o2)cc1 (stereo not drawn)
  18%, 31%
- O=C(CCNS(=O)(=O)c1ccc2[nH]c(=O)ccc2c1)N1CCN(c2ccc(Cl)cc2)CC1
  u, u
- CCCn1c(=O)[nH]c(=O)c2c1nc(-c1ccc(C#N)cc1)n2CCN1CCOCC1
  -14%, -1%
- CCCCn1c(=O)[nH]c(=O)c2c1nc(CN1CCOC(C)C1)n2C (stereo not drawn)
  -3%, 9%
- Cc1ccc(CNC(=O)CSc2ncc(S(=O)(=O)c3ccc(Br)cc3)c(=O)[nH]2)cc1
  -8%, -13%
- Cc1ccc(NC(=O)Cc2c[nH]c3ccccc23)cc1F
  167%[activator], 137%[activator]
- O=C(CSc1ccc(F)cc1)OCc1nc2ccsc2c(=O)[nH]1
  0%, 5%
- CC(=O)c1ccc(N2CCN(C(C(=O)O)c3c[nH]c4cc(NC(=O)C(C)C)ccc34)CC2)cc1 (stereo not drawn)
  -20%, -14%

# (further entries)
# Below each compound – StopGo RLuc, 2A firefly
- Cc1ccc(-c2cc(C(=O)Nc3nnc(C)s3)[nH]n2)c(O)c1
  -2%, 120%[activator]
- CCOc1ccc(N2CC(C(=O)NCc3nnnn3-c3ccc(C)c(C)c3)CC2=O)cc1 (stereo not drawn)
  3%, -15%
- Cc1ccccc1CN1CCN(c2oc(C3CC3)nc2C#N)CC1
  -25%, -12%
- CC(=O)c1c(C)nc2ccc(Cl)cc2c1-c1ccccc1
  15%, u
- COc1ccc(C)c2sc(N(Cc3cccnc3)C(=O)CCc3ccccc3)nc12
  -3%, 4%
- CCOC(=O)c1ccc(NC(=O)COc2cccc3c(=O)n(C)ccc23)cc1
  u, u
- O/N=C1/CCC2CCCC1C2 (stereo not drawn)
  0%, 5%
- CCCC(=O)N1c2ccccc2-c2nnc(SC)nc2OC1C (stereo not drawn)
  -8%, 3%
- COc1ccc(-c2ccc(C#N)c(SCC(=O)NCCc3ccccc3)n2)cc1OC
  9%, 6%
- COc1ccc(C(=O)NCc2ccc3c(c2)CCN3C(=O)c2ccccc2)cc1
  17%, -15%
- CCOc1ccccc1Oc1c(C)oc2cc(OCC(=O)OC(C)(C)C)ccc2c1=O
  -8%, -12%
- CCOc1ccccc1CNC(=O)C1CCN(c2nnc(-n3c(C)ccc3C)s2)CC1
  45%[activator], 0%
- NC(=O)C1CCN(C(=O)CCc2ncc(-c3ccc(F)cc3)o2)CC1
  16%, 86%[activator]
- O=C(CSc1nc2c(c(=O)n1CCc1ccccc1)SCC2)Nc1ccc(Cl)cc1
  3%, 15%
- O=C(CSc1ncnc2nc[nH]c12)Nc1ccc(Oc2ccccc2)cc1
  0%, 0%
- COc1cccc(C(=O)NCc2cc(=O)n3nc(-c4cccc(C)c4)sc3n2)c1
  -10%, 11%
- COC(=O)c1c(C)[nH]c(C(=O)N2CCC(CC(=O)NCc3ccc4c(c3)OCO4)CC2)c1C
  0%, 11%
- COc1nc2cc(C)c(C)cc2nc1C(=O)Nc1cccc(C)c1C
  -11%, -2%
- O=C(/C=C/c1ccc(Cl)cc1)c1ccccc1O
  5%, 52%[activator]
- COc1ccccc1C(=O)NCCSc1c(C)[nH]c2ccccc12
  -26%, u
- CCc1cc(=O)oc2cc(OC(C)C(=O)NCc3ccc(S(N)(=O)=O)cc3)ccc12 (stereo not drawn)
  30%, 5%
- COC(=O)c1cccc(NC(=O)c2cc(=O)c3ccccc3o2)c1
  -11%, 14%
- CCCN(Cc1nnc(-c2ccccc2Cl)o1)C(=O)c1ccc(S(=O)(=O)N2CCCC2)cc1
  14%, 6%
- CCOc1ccc(NC(=O)c2ccc3c(SCC(=O)O)c4c(nc3c2)CCCC4)cc1
  -11%, -8%
- Cc1c(CC(=O)O)c(=O)oc2c(C)c(OC(C)C(=O)O)ccc12 (stereo not drawn)
  -10%, 4%
- O=C(CN1CCN(C(=O)CCNS(=O)(=O)c2ccc3ccccc3c2)CC1)Nc1cccc(F)c1
  22%, -5%
- Cc1ccc(-c2ocnc2C(=O)NCCc2cccc(C)c2)cc1
  7%, 29%
